Bioassay records from PubChem.
Ecoli growth – E. coli growth inhibition, primary screen, OD600; Escherichia coli growth, 23 h; active compounds read low; OD600 absorbance (test concentration not listed); hit rate 0.21% among 330,000; AID 1053175, 2014;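 active = OD600 absorbance below the run mean of sample wells minus 3.6 SD, in any replicate, cut at about 0.56 in these data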;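 note: stock transfer was 300 nL into about 60 µL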
HNF4A DNA FP – change in binding of human HNF4A to DNA, primary screen, biochemical, fluorescence polarization, FITC-DNA. Hepatocyte nuclear factor 4-alpha (Homo sapiens), P41235. 1 h. activity change, % at 10 µM. hit rate 0.3% among 360,000. AID 1224865, 2016; in the data active = activity change above about 30%, passing the limit was not always enough;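 note: controls were the assay level and a saturating level of protein; the project sought stronger binding though the title names inhibitors; some compounds called inactive have numbers as strong as hits; positive values seem to mean higher polarization but the record does not say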
Target sequence (P41235 whole entry, looked up): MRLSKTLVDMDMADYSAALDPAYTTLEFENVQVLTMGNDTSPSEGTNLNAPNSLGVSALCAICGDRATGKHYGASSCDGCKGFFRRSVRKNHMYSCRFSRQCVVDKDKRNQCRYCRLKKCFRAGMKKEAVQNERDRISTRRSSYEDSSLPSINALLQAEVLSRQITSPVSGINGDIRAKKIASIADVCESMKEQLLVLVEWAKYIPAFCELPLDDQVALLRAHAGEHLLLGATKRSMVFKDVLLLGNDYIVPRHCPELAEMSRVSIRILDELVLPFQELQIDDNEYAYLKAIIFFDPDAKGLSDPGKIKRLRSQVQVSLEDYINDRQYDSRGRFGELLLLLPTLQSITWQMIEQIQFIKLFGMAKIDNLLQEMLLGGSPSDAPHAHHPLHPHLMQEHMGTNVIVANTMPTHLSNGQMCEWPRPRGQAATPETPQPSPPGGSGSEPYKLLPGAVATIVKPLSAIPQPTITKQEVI
Vif TR-FRET – inhibitors of Vif binding to APOBEC3G peptide, primary screen, biochemical, TR-FRET, GST-Vif 1-94, biotin-A3G peptide, dose response retest (AID 1117319); Virion infectivity factor (Human immunodeficiency virus type 1 group M subtype B (isolate …; TR-FRET GST-Vif / biotin-A3G peptide binding; higher % means a stronger effect; test concentration not given here; strong numbers were not always called active; inhibition, %, or IC50 in µM where a hit was titrated; hit rate 0.57% among 260,000;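 active = above the screen mean plus three standard deviations and confirmed in dose response; inconclusive = results disagree or hit not tested in dose response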;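 note: Vif residues 1-94 fused to GST binding biotinylated APOBEC3G peptide 110-148; 0% = full assay without inhibitor and 100% = GST in place of GST-Vif; retest series ran down from 100 µM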
AF4-AF9 inh – inhibitors of AF4 peptide binding to AF9, primary screen, biochemical, AlphaScreen, biotin-AF4 peptide, FLAG-AF9, single point; Protein AF-9 (Homo sapiens), P42568; inhibition, % at 10 µM; hit rate 0.47% among 350,000; AID 651704, 2012;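 active = every replicate reaching a set inhibition limit, whatever the replicate mean, cut at about 25% in these data; inconclusive = mean inhibition reaches that limit but some replicates miss it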;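 note: 0% = plate neutral control median and 100% = total signal loss; the record names both 10 and 1 µM as test concentration; the first replicate is given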
Target sequence (P42568 whole entry, looked up): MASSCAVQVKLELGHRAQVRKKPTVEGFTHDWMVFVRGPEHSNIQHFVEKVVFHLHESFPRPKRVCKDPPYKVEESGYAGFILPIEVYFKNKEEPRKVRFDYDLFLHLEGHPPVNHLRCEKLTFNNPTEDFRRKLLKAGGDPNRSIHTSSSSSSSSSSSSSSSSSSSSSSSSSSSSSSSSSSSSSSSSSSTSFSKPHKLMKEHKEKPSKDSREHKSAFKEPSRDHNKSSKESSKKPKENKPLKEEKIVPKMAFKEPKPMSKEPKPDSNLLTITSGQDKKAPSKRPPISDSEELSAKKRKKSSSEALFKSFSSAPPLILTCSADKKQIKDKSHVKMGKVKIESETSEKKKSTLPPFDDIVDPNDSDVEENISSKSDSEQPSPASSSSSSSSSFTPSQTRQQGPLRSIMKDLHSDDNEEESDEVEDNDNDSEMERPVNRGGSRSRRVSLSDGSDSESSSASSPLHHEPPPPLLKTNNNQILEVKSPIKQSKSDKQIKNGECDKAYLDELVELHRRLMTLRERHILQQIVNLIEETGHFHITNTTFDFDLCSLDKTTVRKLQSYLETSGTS
FGF22 binding – binders of human FGF22 protein, primary screen, FGF22 synaptogenesis inhibitor project, biophysical, thermal shift, single point. Fibroblast growth factor 22 (Homo sapiens), Q9HCT0. recombinant FGF22 thermal shift, SYPRO orange fluorescence; percent of sucrose octasulfate shift, DMSO zero. calls only at 9.99 µM. hit rate 1.5% among 340,000. AID 651658, 2012;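 active = melting point raised past a set limit in the mean and every replicate; inconclusive = no clear call; three in four hits are not shown here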
rRNA inh HTS – reduced GFP signal of wild-type E. coli, primary screen, bacterial rRNA inhibitor project, GFP/RFP fluorescence, OD600, single point | AID 720706, 2013 | hit rate 1.6% among 350,000 | E. coli WT GFP vs humanized-ribosome RFP mutants, 24 h; active compounds read low; DMSO median 0, no signal -100 | GFP signal change (wild-type ribosome), % (test concentration not listed);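 active = significant combined selectivity score with lowered wild-type GFP, culture density cut under 30%, mutant RFP and density less affected; inactive = any of these conditions unmet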; note: one replicate is shown; some compounds called inactive have numbers as strong as hits
ALR inh – inhibitors of human ALR sulfhydryl oxidase, primary screen, biochemical, H2O2 detection, HRP-luminol luminescence, single point. purified ALR, DTT oxidation. inhibition, % (no concentration beside the values). hit rate 3.8% among 290,000. AID 485317, 2010;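 active = mean and each replicate at 75% or more; inconclusive = only one of the two met; inactive = neither met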;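 note: stock transfer was 7.5 nL into about 7.5 µL; 0% = neutral wells and 100% = wells with inactivated enzyme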
rRNA inh HTS OD600 – second read-out of rRNA inh HTS, no call of its own (marks repeat the call); OD600 change, %; measured here: OD600 growth;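 optical density of the mix in the first replicate; 0 = DMSO median and -100 = no signal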
rRNA inh HTS RFP – further read-out of rRNA inh HTS, marked with its call; RFP signal change, %; measured here: RFP humanized mutant strains;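 first replicate; 0 = DMSO median and -100 = no signal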
* hit, by the source's call; i = inactive; ? = inconclusive; / = no result given.

SMILES	Ecoli growth	HNF4A DNA FP	Vif TR-FRET	AF4-AF9 inh	FGF22 binding	rRNA inh HTS	rRNA inh HTS OD600	rRNA inh HTS RFP	ALR inh
CCOc1ccc(CCN2C(=O)CCC2(C)C(=O)NC(C)CC)cc1OCC (centres undefined)	0.69	-4.2	-3%	/	/	2	13	-0.6	-9
O=C(N/N=C/c1ccco1)c1cc([N+](=O)[O-])cc([N+](=O)[O-])c1	/	2.4	11%	1.0	i	12	3	-4.9	-13
COc1cc(/C=C2\NC(=O)NC2=O)cc(Br)c1OC	0.67	0.6	2%	0.7	i	1	-5	-0.8	4
Cc1ccccc1-c1ccc([C@H]2[C@H](CO)N3C(=O)CN(C(=O)Cc4ccccn4)C[C@@H]23)cc1	/	/	/	-1.2	i	-2	7	-5.0	/
Cc1cc(NC(=O)CSc2nnc(NCc3ccccc3)s2)no1	0.68	-2.8	-8%	1.0	i	8	3	-2.6	/
O=C(Nc1ccccc1F)c1ccc2sc([C@H]3C[C@H](O)[C@@H](CO)O3)nc2c1	/	3.4	/	1.6	i	8	8	1.8	/
C[C@@H]1CN([C@@H](C)CO)C(=O)Cc2cc(NS(=O)(=O)c3cccs3)ccc2O[C@@H]1CN(C)Cc1ccc(C(F)(F)F)cc1	/	/	/	-0.5	i	1	18	-1.5	/
O=C(COC(=O)c1cccs1)Nc1cc(S(=O)(=O)N2CCOCC2)ccc1Cl	0.69	-0.1	/	-1.7	i	23	-1	6.9	/
Cn1ncc2c(=O)n(CC(=O)NC34CC5CC(CC(C5)C3)C4)cnc21	0.67	0.3	8%	/	/	-6	2	-0.7	1
O=C1N/C(=C/c2ccco2)C(=O)N1Cc1ccccc1F	0.64	-3.8	?	0.6	i	1	3	5.9	63
CC(=O)N1CC2(C1)[C@@H](c1ccccc1)[C@@H](CO)N2C(=O)c1ccncc1	/	/	/	-1.4	i	5	12	-2.2	/
O=C(NC(CCl)c1ccccc1)c1ccc(Cl)cc1 (centres undefined)	0.63	6.8	3%	2.0	i	17	9	3.7	-6
CCn1nnnc1-c1ccc(OC)c(S(=O)(=O)N2CCCCC2)c1	0.66	3.3	0%	/	/	/	/	/	-6
Cc1cc(/C=N/n2cnnc2)c(C)n1-c1ccc(C(=O)O)cc1	/	-0.2	18%	/	/	/	/	/	1
CN(C(=O)COC(=O)C1CSC2(C)CCC(=O)N12)c1ccccc1 (centres undefined)	0.67	-1.3	0%	-0.5	i	3	7	-3.6	-9
Brc1ccc(-c2nc3c4ccccc4ccn3c2Cc2ccccc2)cc1	/	4.5	6%	1.5	i	-22*	-0.9*	4.9*	/
CC1CC(C)CN(C(=O)c2ccc3c(c2)OCCO3)C1 (centres undefined)	0.68	3.1	-12%	-0.7	i	0	-6	0.2	-5
CN(C)C(=O)c1ccc(-c2ccc([C@@H]3[C@H](C#N)N(C(=O)C4CCC4)[C@H]3CO)cc2)cc1	/	/	/	0.5	i	0	-1	-0.2	/
Cc1c(NS(=O)(=O)c2cccs2)c(=O)n(-c2ccccc2)n1C	0.74	1.0	-5%	/	/	/	/	/	-10
O=Cc1c[nH]c2ccc(NC(=O)OCc3ccccc3)cc12	0.65	0.0	10%	-3.5	i	-1	9	0.7	/
Nc1nc2ccccc2cc1C(=O)NCc1ccc(-c2ccccc2)cc1	/	4.2	/	/	i	11	-2	2.8	/
Cc1noc(C)c1S(=O)(=O)Nc1ccc2c(c1)CC(=O)N([C@H](C)CO)C[C@H](C)[C@H](CN(C)Cc1ccc3c(c1)OCO3)O2	/	/	/	-17	i	0	-11	0.0	/
Cc1noc(C)c1S(=O)(=O)Nc1cccc2c1O[C@H](CN(C)S(=O)(=O)c1cn(C)cn1)[C@H](C)CN([C@H](C)CO)C2=O	/	/	/	-2.4	i	4	3	0.0	/
Nc1c(N(CCO)C(=O)c2ccccc2OCc2ccccc2Cl)c(=O)[nH]c(=O)n1Cc1ccccc1	0.66	1.1	/	-1.1	i	-6	-18	-0.2	/
Cc1nc2cc(NC(=O)N3CCCC3)ccc2n1C	0.71	-0.8	/	-2.6	i	-5	-9	0.6	-7

Compounds shown so far containing an aryl methoxy group:
SMILES	Ecoli growth	HNF4A DNA FP	Vif TR-FRET	AF4-AF9 inh	FGF22 binding	rRNA inh HTS	rRNA inh HTS OD600	rRNA inh HTS RFP	ALR inh
COc1cc(/C=C2\NC(=O)NC2=O)cc(Br)c1OC	0.67	0.6	2%	0.7	i	1	-5	-0.8	4
CCn1nnnc1-c1ccc(OC)c(S(=O)(=O)N2CCCCC2)c1	0.66	3.3	0%	/	/	/	/	/	-6

Next structures
SMILES	Ecoli growth	HNF4A DNA FP	Vif TR-FRET	AF4-AF9 inh	FGF22 binding	rRNA inh HTS	rRNA inh HTS OD600	rRNA inh HTS RFP	ALR inh
Clc1nccnc1N/N=C/c1ccc(Br)cc1	/	-1.4	/	7.5	i	8	4	2.0	23
COCC(C)n1c(SCc2ccc(OC)c(F)c2)nc2ccccc2c1=O (centres undefined)	0.68	16	-6%	-4.6	i	-3	4	-7.5	/
NCCC(=O)N1c2ccccc2Sc2ccc(Cl)cc21	0.61	-0.5	1%	-38	i	10	3	1.0	-7
CN(C)N1C(N)=C(C#N)C(c2ccc(Cl)cc2)C2=C1CCCC2=O (centres undefined)	0.63	0.5	-4%	-1.9	i	2	-1	0.7	-89
COc1n[nH]c(C(=O)Nc2cc(F)ccc2C)c1[N+](=O)[O-]	0.65	-3.9	/	/	/	/	/	/	2
CCOC(=O)C1(CC2CCCCO2)CCN(C(=O)Nc2ccc(SC)cc2)CC1 (centres undefined)	0.68	-4.0	/	3.9	i	-18	-20	-0.1	9
Cc1noc(C)c1NC(=O)N(C)C[C@H]1Oc2c(NS(C)(=O)=O)cccc2C(=O)N([C@@H](C)CO)C[C@H]1C	/	/	/	-14	i	1	-3	-2.3	/
O=C(NNC(=S)NC(=O)c1cccc([N+](=O)[O-])c1)c1ccc(O)cc1	0.65	2.9	/	0.0	i	-5	-4	-3.8	88*
COc1ccc(NC(=O)NCCCCc2ccccc2)cc1OC	0.72	-2.4	7%	-4.5	i	-7	-7	2.7	-15
CC(C)(C)C(=O)OC/C(N)=N/OC(=O)c1ccc(Cl)c(Cl)c1	0.66	0.0	0%	-0.8	i	-6	5	0.8	-6
Cc1ccc2c(c1)c1c3n2CCN(CC#N)C3CCC1 (centres undefined)	/	3.4	0%	3.7	i	0	1	-4.9	2
Cc1ccc(CNC(=O)c2ccc[nH]2)cc1	0.62	-2.0	6%	1.2	i	-10	1	-14	-6
Fc1ccccc1Cc1ccc(Cl)nn1	0.64	-2.8	?	-14	i	5	-3	-2.3	4
Cc1ccc2c(cnn2C(=O)CCC(=O)N2CCCCC2C)c1 (centres undefined)	0.72	-3.8	/	-3.7	i	10	4	-10	4
COc1ccc(N(C(=O)c2cccnc2)S(=O)(=O)c2ccccc2)cc1	0.69	2.8	14%	2.2	i	6	4	-0.2	-5
CC(=O)N1CC[C@@H]2[C@H]1c1cc(-c3ccccc3)ccc1N(C)[C@@H]2CO	/	/	/	0.0	i	3	4	1.0	/
CCCN(CCC)CC(=O)Nc1cccc2c1OCO2	0.66	1.1	-1%	/	/	/	/	/	-7
C[C@H](CO)N1C[C@H](C)[C@@H](CN(C)Cc2ccccn2)Oc2cc(-c3ccccc3)ccc2S1(=O)=O	/	/	/	2.1	i	-35	-60	20	/
Cc1ccc(/C=C/C2=NN(C)C(=O)CC2)cc1	/	-1.0	6%	0.3	i	7	9	1.0	-10
CC(=O)OCC1=C(C(=O)O)N2C(=O)C(NC(=O)c3ccc(COc4cccc(Cl)c4Cl)o3)C2SC1 (centres undefined)	0.64	-22	-5%	-7.6	i	-26*	-19*	1.3*	28
COc1ccccc1CN1[C@H](CO)[C@H]2c3ccccc3N(C(=O)C3CCCC3)C[C@H]21	/	/	/	4.8	i	-3	-7	3.5	/
C[C@H]1CN([C@@H](C)CO)C(=O)Cc2cc(NC(=O)Nc3ccc(F)cc3)ccc2O[C@@H]1CN(C)S(C)(=O)=O	/	/	/	3.0	i	0	0	-0.2	/
C/C=C/C(=O)Nc1nnc(C(C)C)s1	0.73	1.4	-1%	/	/	/	/	/	0
COC(=O)C[C@@H]1CC[C@H]2[C@@H](COc3ccc(NS(=O)(=O)c4ccccc4Cl)cc3C(=O)N2C)O1	/	/	/	-0.3	i	-1	5	-0.4	/
CC1CC(C)CN(S(=O)(=O)N2CCC(C(=O)NCCC3=CCCCC3)CC2)C1 (centres undefined)	0.72	2.1	19%	0.3	i	12	-4	-5.3	-11

Arranged by molecular weight (rising): part of the list above.
SMILES	Ecoli growth	HNF4A DNA FP	Vif TR-FRET	AF4-AF9 inh	FGF22 binding	rRNA inh HTS	rRNA inh HTS OD600	rRNA inh HTS RFP	ALR inh
Cc1ccc(/C=C/C2=NN(C)C(=O)CC2)cc1	/	-1.0	6%	0.3	i	7	9	1.0	-10
Cc1ccc2c(cnn2C(=O)CCC(=O)N2CCCCC2C)c1 (centres undefined)	0.72	-3.8	/	-3.7	i	10	4	-10	4
COc1ccc(NC(=O)NCCCCc2ccccc2)cc1OC	0.72	-2.4	7%	-4.5	i	-7	-7	2.7	-15

Additional results follow:
SMILES	Ecoli growth	HNF4A DNA FP	Vif TR-FRET	AF4-AF9 inh	FGF22 binding	rRNA inh HTS	rRNA inh HTS OD600	rRNA inh HTS RFP	ALR inh
Cc1ccc(S(=O)(=O)Nc2nc3n(n2)C(c2ccc(Cl)cc2)CC(=O)N3)cc1 (centres undefined)	0.71	1.5	-13%	/	/	/	/	/	0
O=C(C1=C[C@@H](c2ccc(C(F)(F)F)cc2)C[C@@H](OCCCCO)O1)N1CCN(Cc2ccc3c(c2)OCO3)CC1	/	-0.5	10%	2.6	i	/	/	/	-2
CCCCN(C)C(=O)C1CCN(Cc2cccnc2)CC1	0.68	-1.9	-4%	0.5	i	14	15	-2.0	/
C[C@@H]1CN([C@H](C)CO)C(=O)Cc2cc(NS(=O)(=O)c3ccccc3)ccc2O[C@H]1CN(C)C	/	/	/	-7.4	i	1	4	-0.4	/
COc1ccc(NC(=O)CN2CCC(NC(=O)c3ccc(OC)cc3)CC2)cc1	0.69	0.1	-2%	2.9	i	1	5	-1.9	/
CC(C)(C)c1ccc(OCCCC(=O)NC2=NCCS2)cc1	0.65	1.3	-8%	/	/	/	/	/	-6
C[C@@H]1CN([C@H](C)CO)C(=O)c2cc(NC(=O)C3CCCCC3)ccc2O[C@@H](C)CCCCO[C@@H]1CN(C)Cc1ccncc1	/	/	/	-1.3	i	-5	-11	0.8	/
CCOC(=O)CN(C(=O)CSc1nnc(C)n1-c1ccccc1)c1cccc([N+](=O)[O-])c1	0.71	-0.9	2%	/	/	/	/	/	-5
COc1ccc(NC(=O)Nc2ccc3c(c2)C(=O)N([C@@H](C)CO)C[C@@H](C)[C@H](CN(C)CC2CCCCC2)O3)cc1	/	/	/	8.2	i	1	0	1.1	/

The list is partial, so the mix of outcomes need not match the whole.
